High-throughput results from PubChem.
HNF4A DNA FP – change in binding of human HNF4 alpha to DNA; activity change, % at 10 µM; P41235; 360,000 compounds, 0.3% hits; HNF4a-FITC DNA binding, fluorescence polarization, 1 h; AID 1224865; in the data active means activity change above about 30%, passing the limit was not always enough;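 further: controls were the assay level and a saturating level of protein; the project sought stronger binding though the title names inhibitors; some compounds called inactive have numbers as strong as hits; positive values seem to mean higher polarization but the record does not say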
Target sequence (P41235 whole entry, looked up): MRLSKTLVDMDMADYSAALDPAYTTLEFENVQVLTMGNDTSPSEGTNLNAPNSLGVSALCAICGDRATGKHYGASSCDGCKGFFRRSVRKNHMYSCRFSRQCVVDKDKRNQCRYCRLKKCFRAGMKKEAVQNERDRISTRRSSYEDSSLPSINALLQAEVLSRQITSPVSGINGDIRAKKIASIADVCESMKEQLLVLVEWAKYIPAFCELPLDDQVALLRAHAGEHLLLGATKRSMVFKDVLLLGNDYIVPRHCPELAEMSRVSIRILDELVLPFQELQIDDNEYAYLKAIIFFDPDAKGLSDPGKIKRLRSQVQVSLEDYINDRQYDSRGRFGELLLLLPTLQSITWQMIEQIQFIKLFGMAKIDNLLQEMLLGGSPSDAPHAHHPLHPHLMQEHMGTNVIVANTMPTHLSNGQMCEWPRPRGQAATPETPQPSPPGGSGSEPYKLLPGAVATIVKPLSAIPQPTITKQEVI
E coli growth – inhibitors of Escherichia coli growth; OD600, 23 h; hits give low values; OD600 absorbance (test concentration not listed); 330,000 compounds, 0.21% hits;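 active means OD600 absorbance below the run mean of sample wells minus 3.6 SD, in any replicate, cut at about 0.56 in these data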;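 further: stock transfer was 300 nL into about 60 µL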
FGF22 binding – shifts melting point of recombinant human FGF22; recombinant FGF22 thermal shift, SYPRO orange fluorescence; percent of sucrose octasulfate shift, DMSO zero; calls only at 9.99 µM; 340,000 compounds, 1.5% hits;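 active means melting point raised past a set limit in the mean and every replicate; inconclusive means no clear call; three in four hits are not shown here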
Target sequence (Q9HCT0 whole entry, looked up): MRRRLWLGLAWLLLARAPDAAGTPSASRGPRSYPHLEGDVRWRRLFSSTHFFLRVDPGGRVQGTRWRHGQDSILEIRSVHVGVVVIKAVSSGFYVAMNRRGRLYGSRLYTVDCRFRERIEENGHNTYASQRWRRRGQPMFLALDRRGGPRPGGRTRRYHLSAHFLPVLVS
AF4-AF9 inh – blocks AF4 peptide binding to human AF9. P42568. AlphaScreen, biotin-AF4 peptide binding to FLAG-AF9. inhibition, % at 10 µM. 350,000 compounds, 0.47% hits. AID 651704;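 active means every replicate reaching a set inhibition limit, whatever the replicate mean, cut at about 25% in these data; inconclusive means mean inhibition reaches that limit but some replicates miss it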;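 further: 0% = plate neutral control median and 100% = total signal loss; the record names both 10 and 1 µM as test concentration; the first replicate is given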
Vif TR-FRET – inhibitors of Vif binding to APOBEC3G peptide, primary screen, biochemical, TR-FRET, GST-Vif 1-94, biotin-A3G peptide, dose response retest (AID 1117319). 260,000 compounds, 0.57% hits. inhibition, %; hits with a dose series show IC50 in µM. TR-FRET GST-Vif / biotin-A3G peptide binding; higher % means a stronger effect; test concentration not given here; strong numbers were not always called active;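 active means above the screen mean plus three standard deviations and confirmed in dose response; inconclusive means results disagree or hit not tested in dose response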;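 further: Vif residues 1-94 fused to GST binding biotinylated APOBEC3G peptide 110-148; 0% = full assay without inhibitor and 100% = GST in place of GST-Vif; retest series ran down from 100 µM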
rRNA inh HTS – inhibitors of bacterial rRNA selective over humanized ribosomes | E. coli WT GFP vs humanized-ribosome RFP mutants, fluorescence, 24 h; hits give low values; DMSO median 0, no signal -100 | GFP signal change (wild-type ribosome), % (test concentration not listed) | 350,000 compounds, 1.6% hits | AID 720706;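 active means significant combined selectivity score with lowered wild-type GFP, culture density cut under 30%, mutant RFP and density less affected; inactive means any of these conditions unmet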; further: one replicate is shown; some compounds called inactive have numbers as strong as hits
ALR inh – blocks human ALR sulfhydryl oxidase activity; purified ALR, DTT oxidation, H2O2 HRP-luminol luminescence; AID 485317; inhibition, % (no concentration beside the values); 290,000 compounds, 3.8% hits; P55789;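 active means mean and each replicate at 75% or more; inconclusive means only one of the two met; inactive means neither met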;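 further: stock transfer was 7.5 nL into about 7.5 µL; 0% = neutral wells and 100% = wells with inactivated enzyme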
Target sequence (P55789 whole entry, looked up): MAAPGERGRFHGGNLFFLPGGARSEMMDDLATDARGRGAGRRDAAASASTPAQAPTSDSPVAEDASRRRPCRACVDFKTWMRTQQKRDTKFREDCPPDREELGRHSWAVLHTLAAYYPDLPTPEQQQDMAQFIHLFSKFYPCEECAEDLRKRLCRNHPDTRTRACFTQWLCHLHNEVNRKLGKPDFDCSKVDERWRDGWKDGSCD
rRNA inh HTS OD600 – also measured in rRNA inh HTS; calls as there; OD600 change, %; measured here: OD600 growth;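 optical density of the mix in the first replicate; 0 = DMSO median and -100 = no signal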
rRNA inh HTS RFP – recorded beside rRNA inh HTS, whose call it bears; RFP signal change, %; measured here: RFP humanized mutant strains;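 first replicate; 0 = DMSO median and -100 = no signal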
* marks the source's active call; other numbers are inactive results; i = inactive; ? = inconclusive; . = not tested or not shown; + = active, no number. An excerpt; count on the stated rates, not on these rows.

SMILES	HNF4A DNA FP	E coli growth	FGF22 binding	AF4-AF9 inh	Vif TR-FRET	rRNA inh HTS	rRNA inh HTS OD600	rRNA inh HTS RFP	ALR inh
Cn1c(CC(=O)Nc2ccc(Cl)c(Cl)c2)n[nH]c1=S	-4.9	0.644	i	-22.6	2.3%	-8.5	-3.8	0.3	50.2
COc1ccccc1NC(=O)N[C@@H]1CC[C@@H](CCn2cc(-c3ccccc3OC)nn2)O[C@@H]1CO	.	.	+	3.1	.	-2.9	-17.1	1.7	.
Nn1c(SCC(=O)Nc2nccs2)nnc1C1CC1	6.1	0.664	+	-1.0	.	7.1	20.1	2.0	98.9*
O=C(O)c1ccc(-n2cncn2)c([N+](=O)[O-])c1	1.2	0.657	i	-10.7	18.1%	5.0	3.9	0.5	-8.4
COc1ccc(C(C)(O)c2nc(-c3ccc4c(c3)OCO4)cs2)cc1 (stereo not drawn)	0.4	.	i	1.4	.	-18.4	-49.8	5.2	.
CCc1ccc(-n2c(SCc3cc(=O)n4cc(Br)ccc4n3)nc3[nH]ncc3c2=O)cc1	2.1	0.658	.	8.6	-14.6%	12.3	7.0	-6.0	0.7
CNC(=S)N(CCc1c(C)[nH]c2ccc(Cl)cc12)Cc1cc(OC)c(OC)c(OC)c1	-2.2	0.676	i	8.0	-3.2%	-17.2	-26.9	-1.5	.
CC12CCC(c3c(C(=O)N4CCOCC4)nn(-c4ccccc4)c31)C2(C)C (stereo not drawn)	5.0	0.716	i	-2.1	.	-9.1	1.2	0.5	-3.5
O=c1nccc(Nc2ccccc2)[nH]1	0.6	0.653	i	-1.1	4.6%	-4.7	-2.4	5.1	-11.2
COc1ccc(CNC(=O)C[C@H]2C=C[C@@H](NC(=O)Nc3ccc4c(c3)OCO4)[C@H](CO)O2)cc1	.	.	i	-1.8	.	5.3	8.4	2.4	.
NNC(=O)c1cc2cc(OC(F)(F)F)ccc2[nH]1	-0.9	0.654	i	-4.0	.	-25.2	-20.9	-6.1	.
CN(C)CCCNC1=CC(=O)OC12CCCCC2	-3.5	0.725	.	.	?	.	.	.	-4.3
O=C(COC(=O)c1cc(=O)[nH]c(=O)[nH]1)NCc1ccccc1	4.2	0.68	.	.	32.5%	.	.	.	.
Cc1ccn2c(NC3CCCCC3)c(C(C)C)nc2c1	0.8	0.686	.	.	6.1%	.	.	.	99.1*
O=C(CN(C(=O)CNC(=O)c1cccs1)c1ccc(F)cc1)NC1CCCCC1	-1.6	0.691	i	0.4	.	-6.0	-15.4	2.7	9.3
CCOC(=O)[C@]12CCC=C1N(Cc1ccco1)C(=O)[C@H](CC(=O)N1CCCC1)C2	0.3	.	i	-3.3	.	6.7	16.4	0.8	.
C[C@H]1CN([C@@H](C)CO)C(=O)c2cc(C#Cc3ccncc3)cnc2O[C@@H]1CN(C)CC1CCOCC1	.	.	i	-7.1	.	4.0	-1.0	-2.5	.
O=C(NCCn1cccn1)C1CCC(=O)N(CCc2ccc(Cl)cc2)C1 (stereo not drawn)	2.0	0.68	i	3.7	-11.4%	3.8	18.5	0.6	-12.3
O=C(Cc1ccccc1)N1CCC(c2ccccc2)C1 (stereo not drawn)	2.9	0.674	i	.	0.3%	-7.9	-6.5	2.5	-2.3
Cc1cc(-c2n[nH]c(=S)o2)c(C)n1-c1ccccc1	.	0.724	.	.	30.4%	.	.	.	95.0*
Cc1ccc(CN(C#N)c2nc(C)cc(C)n2)cc1	-4.9	0.663	.	.	3.3%	.	.	.	2.2
CCCC#Cc1cnc2c(c1)C(=O)N([C@@H](C)CO)C[C@@H](C)[C@@H](CN(C)C(=O)C1CCOCC1)O2	.	.	i	1.2	.	4.5	11.6	-1.9	.
C/C(=N\Nc1ncnc2sc(C)c(C)c12)c1ccccn1	1.4	.	i	4.2	.	-8.8	-4.1	1.4	.
Cn1c(-c2cccc([N+](=O)[O-])c2)cnc1NCc1cccc(F)c1	2.5	0.677	i	19.0	3.6%	14.2	10.2	2.3	98.6*
CN(CC(=O)Nc1ccccc1Cl)C(=O)c1ccc(-c2cccc(C(F)(F)F)c2)o1	-0.4	.	i	-18.6	.	-3.2	3.7	-0.1	.
CCOC(=O)c1c[nH]c(=S)n(-c2ccccc2)c1=O	-0.1	0.707	i	-4.1	.	-5.9	-10.1	11.8	.
COc1ccc(CNC(=O)COc2ccc(S(=O)(=O)N3CCCCC3)cc2Cl)cc1	-2.1	0.721	i	-1.0	2.5%	-16.7	-20.5	1.1	-18.6
Cc1noc(C)c1NC(=O)Nc1cccc2c1O[C@@H](CN(C)S(=O)(=O)c1cn(C)cn1)[C@H](C)CN([C@H](C)CO)C2=O	.	.	i	-1.2	.	-0.1	-3.3	-1.7	.
Cc1ccc2cc3c(NC(=O)c4cccnc4)nn(C)c3nc2c1	-1.0	0.76	.	.	75.8%	.	.	.	-8.2
O=C(COc1cccc(C(F)(F)F)c1)N1CCN(c2ccc(O)cc2)CC1	4.3	0.703	i	0.9	27.0%	-14.2	8.3	-4.5	.
COc1ccccc1NC(=O)C1CCN(S(=O)(=O)c2ccc3c(c2)CC(C)N3C(C)=O)CC1 (stereo not drawn)	3.5	0.715	i	-0.6	.	-11.1	0.9	9.9	-2.0
CCOC(=O)c1ccc(NC(=O)C2CC(O)CN2S(=O)(=O)c2ccc(C)cc2)cc1 (stereo not drawn)	2.1	0.678	i	-1.2	.	-3.8	-7.7	0.1	1.0
COc1ccccc1Nc1nc(-c2c(C)[nH]c3ccccc23)cs1	4.4	0.685	.	.	5.4%	.	.	.	-2.0
CCSc1nnc(NC(=O)CSc2nc(CC)nc3c2c(=O)n(C)c(=O)n3C)s1	3.2	0.728	i	6.0	-4.6%	2.2	5.0	-3.4	-3.8
O=C(C1CC1)N1CCCCN2[C@H](C1)[C@@H](c1ccc(-c3cccc(F)c3)cc1)[C@@H]2CO	.	.	i	-11.1	.	-39.8	-57.6	-0.9	.
O=C(Cn1cnc2c(NCc3ccccc3)ncnc21)NCCN1CCOCC1	-3.5	0.653	i	-0.3	.	12.0	13.7	5.3	.
O=C(NCC[C@@H]1CC[C@H](NS(=O)(=O)c2ccccc2)[C@H](CO)O1)c1ccc2c(c1)OCO2	.	.	i	-1.6	.	-1.8	-0.7	-2.2	.
CCOc1ccccc1-c1nc2c([nH]1)c(=O)n(C)c(=O)n2C	0.4	0.684	.	.	-3.1%	.	.	.	-7.3
CC(C)(C)N=C1SCC(C)(/C=N/O)S1 (stereo not drawn)	3.1	.	.	.	-6.0%	.	.	.	23.1
C[C@H](CO)N1C[C@H](C)[C@H](CN(C)Cc2ccccc2)Oc2ccc(NC(=O)Nc3ccc(C(F)(F)F)cc3)cc2CC1=O	.	.	i	4.5	.	2.0	-13.7	2.6	.
Nc1cc(OC(=O)c2cccs2)nn1S(=O)(=O)c1ccccc1	-5.6	0.719	.	.	12.9%	.	.	.	-5.8
Cc1cc(-c2csc(NC(=O)c3cccc(S(=O)(=O)N(C)C)c3)n2)c(C)n1-c1ccccc1	17.2	0.664	.	.	9.4%	.	.	.	-1.6
CN1C(=O)c2cc(NC(=O)c3ccccc3Cl)ccc2OC[C@@H]2O[C@H](CC(=O)NCC(F)(F)F)CC[C@H]21	.	.	i	-13.0	.	2.0	0.1	-0.7	.
CC(C)OCCCNC(=S)NNC(=O)C(c1ccccc1)c1ccccc1	8.2	0.645	i	2.0	-4.9%	-6.4	-14.0	-3.4	18.1
COC(=O)c1[nH]c2ccc(C)cc2c1NC(=O)CN1CCc2cc(OC)c(OC)cc2C1	12.1	0.735	.	1.6	1.7%	.	.	.	-2.3
Cc1ccc(-c2noc(CCC(=O)NCCN3CCN(Cc4ccccc4)CC3)n2)cc1	2.5	0.705	.	.	7.3%	.	.	.	-0.7
COCCn1ccc2c(OCC(=O)Nc3cccc(NC(C)=O)c3)cccc2c1=O	-0.9	0.698	i	-1.9	-16.0%	-3.1	-2.7	-1.4	.
CC1=NN(c2nc(-c3ccccc3)cs2)C(=O)C1N=Nc1ccccc1 (stereo not drawn)	-1.8	0.705	i	-2.5	3.5%	16.5	15.3	-0.9	-2.8
Cc1ccccc1-n1ccnc1SCC(=O)NCC1CCCO1 (stereo not drawn)	7.5	0.719	i	0.9	.	7.4	-1.0	-0.3	-1.7
CN(C)C(=O)C[C@@H]1CC[C@@H]2[C@H](COC[C@@H](O)CN2C(=O)C2CCOCC2)O1	.	.	i	-1.6	.	0.7	-1.9	23.4	.
Next compounds.
SMILES	HNF4A DNA FP	E coli growth	FGF22 binding	AF4-AF9 inh	Vif TR-FRET	rRNA inh HTS	rRNA inh HTS OD600	rRNA inh HTS RFP	ALR inh
CCNC(=O)C[C@H]1CC[C@@H]2[C@H](COC[C@H](O)CN2S(=O)(=O)c2ccc(Oc3ccccc3)cc2)O1	.	.	i	-0.6	.	-5.7	-8.4	-0.9	.
CC(C)c1ccc(O)c(C(=O)c2cnn(-c3ccccc3)c2)c1	-0.5	0.7	i	3.7	.	-1.7	4.2	2.9	-2.5
Cc1ccc(Nc2nc3ccccc3n3cnnc23)c(Cl)c1	6.7	0.674	i	-2.5	-2.6%	21.4	16.4	3.2	-5.3
CCn1nc(NC(=O)Cc2ccc(OC)cc2)c2cc3cc(C)ccc3nc21	-0.4	0.605	i	0.2	?	3.9	-9.5	-4.9	60.9
Cc1ccc(OCC(=O)Nc2ccc(S(=O)(=O)N3CCOCC3)cc2)c([N+](=O)[O-])n1	2.3	0.707	i	0.6	-1.1%	-8.4	-5.1	-6.6	-3.9
CCOC(=O)Cn1nnnc1CN(Cc1ccccc1)Cc1cc2cc(CC)ccc2[nH]c1=O	-1.3	0.728	i	6.2	10.8%	9.0	-3.8	-8.9	-3.3
CCN(CC)CCCNC(=O)CNC(=S)N(CCCN1CCOCC1)Cc1cccs1	-1.3	0.697	i	-0.9	8.0%	11.5	2.4	1.6	.
CC(/C=N/NC(=O)c1sc(N)nc1C)=C\c1ccccc1	2.2	.	i	-0.6	7.3%	16.8	19.9	5.0	-0.4
O=C(C[C@H]1CC[C@H]2[C@@H](COC[C@@H](O)CN2CC2CCOCC2)O1)N1CCOCC1	.	.	i	-8.8	.	0.8	9.8	-0.3	.
O=C(CSC1=NS(=O)(=O)c2cc(Cl)ccc2N1)NCc1ccc(F)cc1	0.3	0.717	i	-12.6	-3.9%	-1.7	-8.1	1.0	5.9
CCn1nc(C(=O)Nc2ccc(S(=O)(=O)Nc3ncccn3)cc2)c2ccccc2c1=O	-1.0	0.636	i	-2.3	-14.0%	8.7	6.9	-1.1	-5.9
O=C(NCCN1CCOCC1)c1ccc(CS(=O)(=O)Cc2ccccc2F)o1	3.6	0.765	.	.	1.2%	.	.	.	-2.8
COC(=O)c1cccc(S(=O)(=O)N2CCC(NC(=O)NC34CC5CC(CC(C5)C3)C4)CC2)c1	-4.0	0.617	.	.	7.9%	.	.	.	0.5
COC(=O)c1ccc(CSc2nc3c(cnn3-c3ccc(C)c(C)c3)c(=O)[nH]2)o1	-1.9	0.794	.	.	?	.	.	.	-1.2

Given with two lines to a compound: three of the compounds above
Screens in order – HNF4A DNA FP, E coli growth, FGF22 binding, AF4-AF9 inh, Vif TR-FRET, rRNA inh HTS, rRNA inh HTS OD600, rRNA inh HTS RFP, ALR inh
COC(=O)c1cccc(S(=O)(=O)N2CCC(NC(=O)NC34CC5CC(CC(C5)C3)C4)CC2)c1
 : -4.0, 0.617, ., ., 7.9%, ., ., ., 0.5
O=C(NCCN1CCOCC1)c1ccc(CS(=O)(=O)Cc2ccccc2F)o1
 : 3.6, 0.765, ., ., 1.2%, ., ., ., -2.8
COC(=O)c1ccc(CSc2nc3c(cnn3-c3ccc(C)c(C)c3)c(=O)[nH]2)o1
 : -1.9, 0.794, ., ., ?, ., ., ., -1.2
